From PubChem BioAssay
StopGo RLuc: lowers the Renilla signal of an FMDV 2A StopGo reporter. HEK cells with a luciferase reporter of 2A StopGo recoding. Potency, µM (series often up to 57.5 µM), for the others: at the top dose signal change, negative = less light. 120,000 tested, 0.32% active. AID 1745857; active means well fitted falling curve with a large enough effect; inconclusive means small, poorly fitted or top-dose-only effect; inactive means no such curve, though single readings can be large or run the other way; also: nearly all actives have a fitted effect of over 55% in size; overnight with compound
StopGo FLuc: lowers the firefly signal of an FMDV 2A StopGo reporter | HEK cells with a luciferase reporter of 2A StopGo recoding | Potency, µM (top dose mostly 57.5 µM), inactives show top-dose signal change, negative = less light | 120,000 tested, 0.23% active | AID 1745856; active = well fitted falling curve with a large enough effect; inconclusive = small, poorly fitted or top-dose-only effect; inactive = no such curve, though single readings can be large or run the other way; also: nearly all actives have a fitted effect of over 60% in size; overnight with compound
Numbers without * were called inactive; ? = inconclusive; & = joins results of further samples; [ ] = remark or other dose. % is scaled to controls: 0 for no effect and ±100 for the full control effect; potency is read from the fitted curve at half-maximal effect.

1	Nc1nc(CN2CCN(c3ccc(F)cc3)CC2)nc(N2CCCc3ccccc32)n1
2	CCOc1ccc(/C=C/c2nc(C#N)c(N3CCC(C)CC3)o2)cc1
3	CC(=O)Nc1ccc(NC(=O)C(C)Sc2nc3nc(C)cc(C)n3n2)cc1 (configuration not stated)
4	COc1cccc(NC(=O)C2CCCN(S(=O)(=O)c3cccc4nonc34)C2)c1 (configuration not stated)
5	Cc1cc(=O)oc2cc(OS(=O)(=O)c3ccc(Br)cc3Cl)ccc12
6	CCCCOc1ccc(OC(=O)c2sc3ncn(Cc4cccc(F)c4)c(=O)c3c2C)cc1
assay / compound,1,2,3,4,5,6
StopGo RLuc,-22%,33%&18%[activator],0%,-5%,24%,4%
StopGo FLuc,-21%,0%&23%,-2%,-7%,220%[activator],-4%

7	COC(=O)c1ccc(C2NC(=O)NC(C)=C2C(=O)N(C)C)cc1 (configuration not stated)
8	CN(Cc1cccs1)C(C(=O)NC1CC1)c1ccccc1 (configuration not stated)
9	NC(=O)CCS(=O)(=O)CCN1CCCC1c1cccc(Cl)c1 (configuration not stated)
10	CCCOC(=O)C1=C(C)N(C)C(=O)NC1c1cc(Cl)c(O)c(OC)c1 (configuration not stated)
11	Cc1ccc(C)c(CN2C(=O)CSc3ccc(C(=O)NCc4ccccc4)cc32)c1
12	Cc1ccc(Cl)cc1NC(=O)C1CCN(S(=O)(=O)c2cccc3nonc23)CC1
assay / compound,7,8,9,10,11,12
StopGo RLuc,-8%,10%,10%,5%,8%,4%
StopGo FLuc,0%,-13%,23%,11%,2%,-7%

13	O=c1c2ccc(Cl)cc2ncn1Cc1ncc(-c2ccccc2)o1
14	Cc1nc(N2CCCC2)c2c(C(=O)NCc3ccco3)c(C)oc2n1
15	COc1ccc2c(C(=O)c3ccc(Cl)cc3)c(C)n(CC(=O)O)c2c1
16	O=C(/C=C/c1cccc(Oc2ccc(Cl)cc2)c1)c1ccccc1
17	Cc1cccc(OCC(=O)N2CCN(CCc3ccccn3)CC2)c1
18	C#CCSc1nc2sc3c(c2c(=O)n1-c1cccc(OC)c1)CCN(C(C)=O)C3
assay / compound,13,14,15,16,17,18
StopGo RLuc,-2%,-10%,?,-3%[1.06 µM],-7%,1%
StopGo FLuc,7%,-2%,-17%,70%[activator],-6%,-6%

19	O=C(CSc1ccc2c(c1)OCCO2)NC(c1ccccc1)c1cccs1 (configuration not stated)
20	COc1ccc(S(=O)(=O)c2cc3ccc(OC)cc3oc2=O)cc1
21	Cn1c(=O)c2nc(SCc3ccc(Cl)cc3Cl)n(C)c2n(C)c1=O
22	Cn1c(=O)c2c(ncn2Cc2ccc(Cl)cc2Cl)n(C)c1=O
23	O=S1(=O)C=CC2ON=C(c3c(Cl)cccc3Cl)C21 (configuration not stated)
24	CCN(CC)S(=O)(=O)c1cc(NC(=S)Nc2ccccc2F)ccc1C
assay / compound,19,20,21,22,23,24
StopGo RLuc,-7%,25%,6%,?,32µM*,35%[activator]
StopGo FLuc,-11%,5%,10%,?,?,?

25	CCc1nnc2c(Nc3ccccc3Br)nc3ccccc3n12
26	CCC1CN(C(=O)N2CCC(C(=O)NCCc3ccc(OC)c(OC)c3)CC2)c2ccccc2O1 (configuration not stated)
27	Cn1nc(C(=O)NCC2CCN(C3CC3)C2)c2ccccc2c1=O (configuration not stated)
28	Cc1c(-c2ccccc2)c(=O)oc2c(CN3CCCC3)c(O)ccc12
29	COc1cc(Cl)c(C)cc1NC(=O)Cn1c(C)c2cnn(-c3ccccc3)c(=O)c2c1C
30	Cc1oc(-c2ccccc2)nc1CC(=O)NC(C)c1ccco1 (configuration not stated)
assay / compound,25,26,27,28,29,30
StopGo RLuc,-6%,11%,-2%,-13%,-9%,1%
StopGo FLuc,0%,?,-1%,-15%,-13%,6%

31	Cc1ccc(OCc2nc3ccccc3n2Cc2ccccc2Cl)cc1
32	Cc1ccc(CN2CCc3nc(N4CCN(c5ccccc5F)CC4)ncc3C2)s1
33	CCCCC(=O)N1c2ccccc2C(C)(c2ccccc2)CC1(C)C (configuration not stated)
34	CCCn1c(CCC(=O)Nc2cccc(C)c2C)nc2cccnc21
35	Cc1ccccc1OC(=O)/C=C/c1ccccc1
36	CN(C)S(=O)(=O)N(CC(=O)NC1CCCCCC1)c1ccccc1
assay / compound,31,32,33,34,35,36
StopGo RLuc,-2%,-14%,4%,-8%,2%,28%
StopGo FLuc,5%,2%,-2%,-14%,4%,-9%

Reprinted from above (15 entries):
22	Cn1c(=O)c2c(ncn2Cc2ccc(Cl)cc2Cl)n(C)c1=O
23	O=S1(=O)C=CC2ON=C(c3c(Cl)cccc3Cl)C21 (configuration not stated)
24	CCN(CC)S(=O)(=O)c1cc(NC(=S)Nc2ccccc2F)ccc1C
25	CCc1nnc2c(Nc3ccccc3Br)nc3ccccc3n12
26	CCC1CN(C(=O)N2CCC(C(=O)NCCc3ccc(OC)c(OC)c3)CC2)c2ccccc2O1 (configuration not stated)
27	Cn1nc(C(=O)NCC2CCN(C3CC3)C2)c2ccccc2c1=O (configuration not stated)
28	Cc1c(-c2ccccc2)c(=O)oc2c(CN3CCCC3)c(O)ccc12
29	COc1cc(Cl)c(C)cc1NC(=O)Cn1c(C)c2cnn(-c3ccccc3)c(=O)c2c1C
assay / compound,22,23,24,25,26,27,28,29
StopGo RLuc,?,32µM*,35%[activator],-6%,11%,-2%,-13%,-9%
StopGo FLuc,?,?,?,0%,?,-1%,-15%,-13%

30	Cc1oc(-c2ccccc2)nc1CC(=O)NC(C)c1ccco1 (configuration not stated)
31	Cc1ccc(OCc2nc3ccccc3n2Cc2ccccc2Cl)cc1
32	Cc1ccc(CN2CCc3nc(N4CCN(c5ccccc5F)CC4)ncc3C2)s1
33	CCCCC(=O)N1c2ccccc2C(C)(c2ccccc2)CC1(C)C (configuration not stated)
34	CCCn1c(CCC(=O)Nc2cccc(C)c2C)nc2cccnc21
35	Cc1ccccc1OC(=O)/C=C/c1ccccc1
36	CN(C)S(=O)(=O)N(CC(=O)NC1CCCCCC1)c1ccccc1
assay / compound,30,31,32,33,34,35,36
StopGo RLuc,1%,-2%,-14%,4%,-8%,2%,28%
StopGo FLuc,6%,5%,2%,-2%,-14%,4%,-9%

More records:
37	Cc1cc(/C=C/C(=O)c2ccc(O)cc2)cc(C)c1O
38	CC(=O)Nc1ccc(S(=O)(=O)NCCS(=O)(=O)N2CCN(c3ccccc3F)CC2)cc1
39	CCc1ccc(C(=O)c2cn(CC(=O)Nc3cccc(OC)c3)c3ccc(OC)cc3c2=O)cc1
40	COc1ccc(CN(C)C(=O)CCn2ccc3ccccc32)c(OC)c1
41	CCOc1ccc(/C=C/c2nc(C#N)c(Nc3ccc(OCC)cc3)o2)cc1
42	COc1ccc(NC(=O)C(c2ccc(C)cc2)N(C)C(=O)/C=C\c2ccc3c(c2)OCO3)cc1 (configuration not stated)
assay / compound,37,38,39,40,41,42
StopGo RLuc,4%,20%,-11%,30%,19%&-2%,-11%
StopGo FLuc,227%[activator],-14%,-24%,?,57%&15%,-25%

43	CCC(C)NS(=O)(=O)c1c(C)cc(N2C(=O)CCS2(=O)=O)cc1C (configuration not stated)
44	Cc1c(-c2nc(-c3ccccc3F)no2)nnn1-c1ccccc1Cl
45	O=C(Nc1ccccc1Cl)c1nc2ccccc2nc1N1CCOCC1
46	CCCCCN1CCN(c2nc3c(c(=O)[nH]c(=O)n3C)n2Cc2ccccc2F)CC1
47	Cn1c(=O)c2c(nc(NCCCO)n2Cc2cccc(Cl)c2)n(C)c1=O
48	O=C(NC1CC(=O)N(c2cccc(F)c2)C1)c1ccc2c(c1)OCO2 (configuration not stated)
assay / compound,43,44,45,46,47,48
StopGo RLuc,9%,111%[activator],2%,-5%,-6%,-11%
StopGo FLuc,3%,?,0%,-4%,-5%,-12%

49	CC(CNC(=O)c1ccco1)c1ccccc1 (configuration not stated)
50	O=C(NCc1ccc(OC(F)(F)F)cc1)N1CCc2sccc2C1
51	Cc1nc2nc(NC(=O)C(C)C)[nH]n2c(=O)c1Cc1ccccc1
52	COc1ccc(Cc2nc3ccc(C(=O)NCCc4ccc(OC)c(OC)c4)cc3o2)cc1
53	Cc1cccc(NC(=O)CSc2nc(=O)n(Cc3ccco3)c3c2CCC3)c1C
54	Cc1cc(C)c(/C=N/Nc2cc(C(F)(F)F)ccc2Cl)c(C)c1
assay / compound,49,50,51,52,53,54
StopGo RLuc,-4%,3%,7%,?,204%[activator],19%
StopGo FLuc,0%,14%,1%,?,-15%,0%

55	COc1ccc(C2C(=O)N(C3CCCCCC3)CC(=O)N2Cc2ccc(C)cc2)cc1 (configuration not stated)
56	C[N+]1(C)CCCC(OC(=O)C(O)(c2ccccc2)c2ccccc2)C1 (configuration not stated)
57	O=C(O)c1ccc(COc2ccc(Cl)cc2)cc1
58	O=c1n(Cc2ccc(F)cc2)c2ccccc2c2nc(-c3ccccc3)nn12
59	Cc1ccc2nc(-c3ccc(Cl)c(NC(=O)c4ccc(Br)o4)c3)oc2c1
60	COc1cccc(NC(=O)Nc2cc(-c3cn4cccnc4n3)ccc2C)c1
assay / compound,55,56,57,58,59,60
StopGo RLuc,-19%,-2%,4%,-12%,9%,-4%&-12%
StopGo FLuc,23%,-9%[11.5 µM],76%[activator],-9%,133%[activator],15%&22%

61	Cc1cc(C)c2nc(NC(=O)c3ccc(S(=O)(=O)N4CCCC4)cc3)sc2c1
62	Cc1sc(/N=C/c2ccc(Br)cc2)c(C#N)c1C
63	COc1ccccc1N1CCN(S(=O)(=O)c2c(C)nc3sccn3c2=O)CC1
64	CC(C)CNC(=O)C(=O)Nc1ccc2cc[nH]c2c1
65	CCOc1ccc(OCC)c(NC(=O)C2CCN(c3cnccn3)CC2)c1
66	Cc1csc2nc(COc3ccc(NC(=O)c4ccccc4F)cc3)cc(=O)n12
assay / compound,61,62,63,64,65,66
StopGo RLuc,-13%,1%,4%,10%,-10%,-18%
StopGo FLuc,-5%,13%,-24%,0%,-15%,-11%

67	COc1cc(CCC(=O)Nc2ccc3oc(-c4ccc(Cl)cc4)cc(=O)c3c2)on1
68	COC(=O)c1ccc(COc2ccc3c(=O)c(Oc4ccc(OC)cc4)c(C(F)(F)F)oc3c2)cc1
69	Nc1cccc(OCCc2ccccn2)c1
70	Nc1nccnc1C(=O)NCc1ccc(-n2cccn2)nc1
71	C(=N\Nc1ccccc1)/c1ccc(OCc2ccccc2)cc1
72	N#CCC(=O)NCC1CCCO1 (configuration not stated)
assay / compound,67,68,69,70,71,72
StopGo RLuc,5%,3%,13%,?,17%,3%
StopGo FLuc,50%[activator],7%,88%[activator],?,0%,3%

73	N#Cc1c(N)nc2c(c1-c1ccc(OCc3ccc(F)cc3)cc1)c(=O)nc1sccn12
74	CCc1ccc(NC(=O)C(=O)NCCc2sc(-c3ccc(C)cc3)nc2C)cc1
75	CC1=C(c2ccccc2)S(=O)(=O)NC1=NC(C)C12CC3CC(CC(C3)C1)C2 (configuration not stated)
76	COc1ccc(NC(=O)CSc2nnc(-c3cccs3)o2)cc1
77	CC(C)C(=O)N1CCN(C(=O)c2nn(C)c(=O)c3ccccc23)CC1
78	Cc1c(CNC2CCCCC2)c(C(=O)O)c(C)n1Cc1c(F)cccc1Cl
assay / compound,73,74,75,76,77,78
StopGo RLuc,-8%,1%,0%,3%,-12%,9%
StopGo FLuc,-12%,1%,-4%,63%[activator],-11%,-20%

79	COc1ccc(C(C)=O)cc1CO/N=C/c1ccc(OCc2ccc(Cl)cc2)c(OC)c1
80	CC(=O)c1c(C)[nH]c(C(=O)OC(C)c2nnc(-c3ccc(C)cc3)o2)c1C (configuration not stated)
81	COc1ccc(CNCCc2c[nH]c3ccccc23)c(OC)c1C
82	O=C(CCSCc1ccccc1F)N1CCN(c2ccc(Cl)cc2)CC1
83	Cc1ccc(Cl)cc1N1CCN(C(=O)CN(c2ccc(F)cc2)S(=O)(=O)N(C)C)CC1
84	CC(C)c1cccc(C(C)C)c1NC(=O)COc1ncnc2ccccc12
assay / compound,79,80,81,82,83,84
StopGo RLuc,35%,-1%,-10%,-15%,?,2%
StopGo FLuc,207%[activator],177%[activator],-12%,-18%,?,-11%

85	O=C(Nc1ccc2oc(-c3cccc(Br)c3)nc2c1)c1ccc2c(c1)OCCO2
86	Cc1cc(C(=O)OCC(=O)c2ccc(OC(=O)c3ccccc3)cc2)c2ccccc2n1
87	Cc1cccc(CNC(=O)c2oc3c(c2C)-c2nn(Cc4cccc(Cl)c4)cc2CC3)c1
88	C=Cc1ccc(Cn2c(=O)n(-c3cccc(Cl)c3)c(=O)c3c4c(sc32)CN(C(C)=O)CC4)cc1
89	N#CC1(c2ccc(F)cc2)CCC(=O)CC1
assay / compound,85,86,87,88,89
StopGo RLuc,-7%,-1%,-17%,10%,-8%
StopGo FLuc,6%,2%,-1%,-15%,-11%[11.5 µM]

The list is partial. The share of hits here may be higher or lower than overall.
